E coli growth – blocks Escherichia coli growth | OD600, 23 h; stronger effect = lower value | OD600 absorbance (concentration not given with the values) | 0.21% of 330,000 active | AID 1053175;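 active = OD600 absorbance below the run mean of sample wells minus 3.6 SD, in any replicate, cut at about 0.56 in these data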;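 also: stock transfer was 300 nL into about 60 µL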
UCH37 DUB inh – inhibitors of human deubiquitinating enzyme UCH37 | purified proteasome/UCH37, Ub-AMC cleavage fluorescence | inhibition, % (no concentration beside the values) | 0.33% of 330,000 active | AID 588478;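 active = mean of two replicates above 20%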;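 also: 0% = compound-free wells with enzyme and 100% = wells lacking proteasome; stock transfer was 100 nL into about 20 µL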
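assay system = human UCH37 enzyme supplied as purified proteasome complex | amount = proteasome at 0.15 nM in the dispensed enzyme solution | schedule = 30 min compound-proteasome preincubation then 25 min substrate reaction, room temperature | measured by = fluorescence, ex 355 nm, em 460 nm | benchmarks = no-proteasome wells (full inhibition) and compound-free wells (no inhibition)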
HNF4A DNA FP – change in binding of human HNF4 alpha to DNA; HNF4a-FITC DNA binding, fluorescence polarization, 1 h; AID 1224865; 0.3% of 360,000 active; activity change, % at 10 µM; in the data active = activity change above about 30%, passing the limit was not always enough;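 also: controls were the assay level and a saturating level of protein; the project sought stronger binding though the title names inhibitors; some compounds called inactive have numbers as strong as hits; positive values seem to mean higher polarization but the record does not say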
Target sequence (P41235 whole entry, looked up): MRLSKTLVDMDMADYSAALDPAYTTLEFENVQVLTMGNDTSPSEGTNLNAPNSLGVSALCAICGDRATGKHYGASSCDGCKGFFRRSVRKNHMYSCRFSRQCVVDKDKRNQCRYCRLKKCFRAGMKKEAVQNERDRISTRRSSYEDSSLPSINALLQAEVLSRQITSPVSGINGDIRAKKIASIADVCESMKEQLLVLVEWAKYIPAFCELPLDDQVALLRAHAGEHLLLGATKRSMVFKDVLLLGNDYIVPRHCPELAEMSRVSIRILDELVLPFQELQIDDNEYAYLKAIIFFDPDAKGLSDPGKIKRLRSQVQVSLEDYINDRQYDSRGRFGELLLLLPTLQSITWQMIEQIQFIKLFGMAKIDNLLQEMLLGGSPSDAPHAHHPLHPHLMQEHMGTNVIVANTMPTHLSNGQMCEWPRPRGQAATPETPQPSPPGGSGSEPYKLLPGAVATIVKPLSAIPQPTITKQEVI
MLL AF4-AF9 inh – blocks AF4 peptide binding to human AF9; P42568; AlphaScreen, biotin-AF4 peptide binding to FLAG-AF9; inhibition, % at 10 µM; 0.47% of 350,000 active; AID 651704;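 active = every replicate reaching a set inhibition limit, whatever the replicate mean, cut at about 25% in these data; inconclusive = mean inhibition reaches that limit but some replicates miss it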;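 also: 0% = plate neutral control median and 100% = total signal loss; the record names both 10 and 1 µM as test concentration; the first replicate is given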
Target sequence (P42568 whole entry, looked up): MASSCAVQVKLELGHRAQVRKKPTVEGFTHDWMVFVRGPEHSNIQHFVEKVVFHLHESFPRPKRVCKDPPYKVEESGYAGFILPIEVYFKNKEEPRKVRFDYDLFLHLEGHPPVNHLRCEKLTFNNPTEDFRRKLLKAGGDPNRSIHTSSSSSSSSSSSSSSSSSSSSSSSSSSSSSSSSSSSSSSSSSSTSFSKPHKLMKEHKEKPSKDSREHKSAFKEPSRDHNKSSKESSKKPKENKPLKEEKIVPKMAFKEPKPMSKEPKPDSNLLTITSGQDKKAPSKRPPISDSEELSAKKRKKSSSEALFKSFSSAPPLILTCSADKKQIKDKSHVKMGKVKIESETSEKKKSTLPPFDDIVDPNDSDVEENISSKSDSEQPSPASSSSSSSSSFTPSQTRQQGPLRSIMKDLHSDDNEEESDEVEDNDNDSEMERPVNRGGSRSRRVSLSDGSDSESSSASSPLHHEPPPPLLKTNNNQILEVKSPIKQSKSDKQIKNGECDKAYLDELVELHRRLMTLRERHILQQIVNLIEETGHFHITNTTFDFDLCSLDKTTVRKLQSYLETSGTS
FGF22 binding – FGF22 (human) thermal shift binding | Q9HCT0 | recombinant FGF22 thermal shift, SYPRO orange fluorescence; percent of sucrose octasulfate shift, DMSO zero | calls only at 9.99 µM | 1.5% of 340,000 active;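 active = melting point raised past a set limit in the mean and every replicate; inconclusive = no clear call; three in four hits are not shown here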
RanGTP-Imp inh – disruptors of Ran-importin-beta complex formation – biochemical, FRET, CFP-Ran, YFP-importin-beta, homogeneous, primary screen. cell-free CFP-Ran/YFP-importin-beta FRET ratio. inhibition, % (test concentration not listed). 1.1% of 300,000 active. AID 2216;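 active = most replicates above 15%; inconclusive = exactly half above 15%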;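 also: 0% = DMSO wells and 100% = Ran loaded with GDP instead of GTP; wells of about 40 µL received 100 nL stock; the first replicate is given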
Vif A3G – inhibitors of Vif binding to APOBEC3G peptide, primary screen, biochemical, TR-FRET, GST-Vif 1-94, biotin-A3G peptide, dose response retest (AID 1117319); TR-FRET GST-Vif / biotin-A3G peptide binding; higher % means a stronger effect; test concentration not given here; strong numbers were not always called active; inhibition, %; hits with a dose series show IC50 in µM; 0.57% of 260,000 active;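 active = above the screen mean plus three standard deviations and confirmed in dose response; inconclusive = results disagree or hit not tested in dose response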;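 also: Vif residues 1-94 fused to GST binding biotinylated APOBEC3G peptide 110-148; 0% = full assay without inhibitor and 100% = GST in place of GST-Vif; retest series ran down from 100 µM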
Starred values were filed as active, the others as inactive.

Results for COc1ccccc1CC1(C)C(=O)Nc2ccc(S(=O)(=O)NC3CCCCC3)cc21 (stereo not given) ?
HNF4A DNA FP: -2.2; MLL AF4-AF9 inh: 2.0; FGF22 binding: inactive

Results for CC1(C)CC2(C)CC(=O)C1C(C(=O)O)C2C(=O)O (stereo not given) ?
HNF4A DNA FP: -0.3; MLL AF4-AF9 inh: -4.0; FGF22 binding: inactive; Vif A3G: 2%

How did C[C@@]12C(=O)NCC(=O)N1[C@@H]1c3cc(Br)ccc3OC[C@@H]1[C@@H]2c1ccccc1 do in these assays?
UCH37 DUB inh: 1.6; HNF4A DNA FP: -0.8; MLL AF4-AF9 inh: 2.4; FGF22 binding: inactive

How did COc1cc2c(cc1OC)CN(C(=O)CSC1=NCCS1)CC2 do in these assays?
HNF4A DNA FP: 3.9; MLL AF4-AF9 inh: -0.6; FGF22 binding: inactive; Vif A3G: 4%

What do the screens show for `COc1cc(NS(=O)(=O)c2ccc(N/C=C(\C=O)c3nc4ccccc4o3)cc2)nc(OC)n1`?
E coli growth: 0.64; UCH37 DUB inh: 14; HNF4A DNA FP: 0.9; RanGTP-Imp inh: 4.5

How did Cc1ccc(S(=O)(=O)NCC(=O)OCC(=O)N(Cc2ccccc2)C(C)(C)C)cc1 do in these assays?
UCH37 DUB inh: 4.4; HNF4A DNA FP: 2.6; MLL AF4-AF9 inh: -16; FGF22 binding: inactive; RanGTP-Imp inh: -0.9; Vif A3G: 5%

What do the screens show for `COc1cc(NC(=O)c2cccc(COCC(F)(F)C(F)F)c2)cc(OC)c1OC`?
E coli growth: 0.73; UCH37 DUB inh: 0.9; HNF4A DNA FP: 3.0; RanGTP-Imp inh: 2.7

How did O=C(NCCCC(NC(=O)OCc1ccccc1)C(=O)O)OCc1ccccc1 (stereo not given) do in these assays?
E coli growth: 0.71; UCH37 DUB inh: 2.6; HNF4A DNA FP: 2.2; MLL AF4-AF9 inh: -1.5; FGF22 binding: inactive; RanGTP-Imp inh: -3.1

What do the screens show for `Cc1ccc(S(=O)(=O)CC(O)COc2ccc(C#N)cc2)cc1` (stereo not given)?
E coli growth: 0.66; UCH37 DUB inh: -1.0; HNF4A DNA FP: -3.2; MLL AF4-AF9 inh: -2.7; FGF22 binding: inactive; RanGTP-Imp inh: inconclusive; Vif A3G: 11%

Results for CCS(=O)(=O)N1CCN(c2ccc(C(=O)N3CCOCC3)cc2[N+](=O)[O-])CC1 ?
E coli growth: 0.68; UCH37 DUB inh: -1.5; HNF4A DNA FP: -2.7; MLL AF4-AF9 inh: 3.7; FGF22 binding: inactive; RanGTP-Imp inh: 3.7; Vif A3G: 12%

Results for CCCCN(C)CCN1C(=O)C2C(C(=O)Nc3cccc(OC)c3)C3C=CC2(O3)C1C(=O)NC1CCCCC1C (stereo not given) ?
E coli growth: 0.68; UCH37 DUB inh: 2.6; HNF4A DNA FP: 1.0; MLL AF4-AF9 inh: 0.5; FGF22 binding: inactive; RanGTP-Imp inh: 2.5

What do the screens show for `CCOC(=O)c1oc2ccc(S(=O)(=O)n3nc(-c4ccc(C)cc4)cc3N)cc2c1C`?
E coli growth: 0.73; UCH37 DUB inh: 3.0; HNF4A DNA FP: 1.3; MLL AF4-AF9 inh: 1.7; FGF22 binding: inactive; RanGTP-Imp inh: -0.6; Vif A3G: -4%

How did N#Cc1ccccc1-n1c(N)c(C(=O)N2CCCC2)sc1=S do in these assays?
E coli growth: 0.64; UCH37 DUB inh: 9.3; HNF4A DNA FP: -5.1; RanGTP-Imp inh: -1.3; Vif A3G: inconclusive

What do the screens show for `O=C(N/N=C/c1ccc([N+](=O)[O-])cc1)c1cnccn1`?
MLL AF4-AF9 inh: -0.1; FGF22 binding: inactive; RanGTP-Imp inh: 0.1; Vif A3G: -1%

Results for O=C1N=C(N2CCOCC2)S/C1=C/c1cc2c(cc1[N+](=O)[O-])OCO2 ?
E coli growth: 0.65; UCH37 DUB inh: 19; HNF4A DNA FP: -3.1; MLL AF4-AF9 inh: 0.4; FGF22 binding: inactive; RanGTP-Imp inh: -1.5; Vif A3G: 20%

How did COc1cc(CN2CCCCCC2)cc(Br)c1O do in these assays?
E coli growth: 0.69; UCH37 DUB inh: 3.0; HNF4A DNA FP: 4.1; MLL AF4-AF9 inh: -5.4; FGF22 binding: inactive; RanGTP-Imp inh: -0.3

How did CC(c1cccnc1)N(CCN(C)C)C(=O)Nc1ccc(Cl)c(Cl)c1 (stereo not given) do in these assays?
E coli growth: 0.74; UCH37 DUB inh: 5.3; HNF4A DNA FP: -1.9; MLL AF4-AF9 inh: -2.2; FGF22 binding: inactive; RanGTP-Imp inh: inconclusive

What do the screens show for `CC(=O)Nc1ccc2c(c1)nc(CCNC(=O)c1ccccc1)n2C`?
E coli growth: 0.71; UCH37 DUB inh: 5.2; HNF4A DNA FP: -2.2; RanGTP-Imp inh: 4.1; Vif A3G: -2%

Results for CCc1nc(N2CCN(C(=O)c3ccco3)CC2)c2oc3ccccc3c2n1 ?
E coli growth: 0.71; UCH37 DUB inh: 0.0; HNF4A DNA FP: -2.6; RanGTP-Imp inh: 1.4; Vif A3G: inconclusive

How did Cc1cccc(CN2CCN(CCCc3ccccc3)CC2)c1 do in these assays?
E coli growth: 0.65; UCH37 DUB inh: 1.9; RanGTP-Imp inh: -3.5; Vif A3G: -9%

Results for CC(Oc1ccc(Cl)cc1Cl)C(=O)N/N=C1\CCCc2ccccc21 (stereo not given) ?
HNF4A DNA FP: 0.7; RanGTP-Imp inh: 0.3; Vif A3G: 1%

What do the screens show for `O=C(/C=C/c1ccc([N+](=O)[O-])cc1)Nc1cccc(S(=O)(=O)NC2=NCCCCC2)c1`?
E coli growth: 0.63; UCH37 DUB inh: 2.1; HNF4A DNA FP: 2.8; MLL AF4-AF9 inh: -1.4; FGF22 binding: inactive; Vif A3G: -36%

Results for CC1=C(C(=O)OCC2CCCO2)C(c2ccccc2)C2=C(CC(C)(C)CC2=O)N1 (stereo not given) ?
E coli growth: 0.68; UCH37 DUB inh: -181; HNF4A DNA FP: 0.7; MLL AF4-AF9 inh: -2.9; FGF22 binding: inactive; RanGTP-Imp inh: 2.1; Vif A3G: -5%

How did CCOC(=O)C1(C(F)(F)F)N=C(C(F)(F)F)Nc2ccccc21 (stereo not given) do in these assays?
E coli growth: 0.6; UCH37 DUB inh: 0.7; HNF4A DNA FP: 1.1; MLL AF4-AF9 inh: 3.2; FGF22 binding: inactive; RanGTP-Imp inh: -2.6; Vif A3G: -2%

What do the screens show for `Cn1c(=O)c2c(nc(CN3CCN(C(=O)c4ccco4)CC3)n2Cc2ccc(Cl)cc2)n(C)c1=O`?
E coli growth: 0.71; UCH37 DUB inh: 0.9; HNF4A DNA FP: 1.5; RanGTP-Imp inh: -2.2; Vif A3G: -7%

What do the screens show for `O=c1[nH]cnc(O)c1C(c1cccc([N+](=O)[O-])c1)c1c(O)nc[nH]c1=O`?
E coli growth: 0.68; UCH37 DUB inh: 1.1; HNF4A DNA FP: -0.7; MLL AF4-AF9 inh: 3.0; FGF22 binding: inactive; RanGTP-Imp inh: 3.7; Vif A3G: 0%

Results for O=C(NCCc1ccccc1)C1CC(=O)N(c2ccc3c(c2)OCCO3)C1 (stereo not given) ?
E coli growth: 0.69; UCH37 DUB inh: 0.3; HNF4A DNA FP: -1.6; MLL AF4-AF9 inh: -9.3; FGF22 binding: inactive; RanGTP-Imp inh: 5.4; Vif A3G: -11%

Results for CCOC(=O)c1[nH]cnc1C(=O)NC1CCN(C(=O)OC(C)(C)C)CC1 ?
E coli growth: 0.7; UCH37 DUB inh: 12; HNF4A DNA FP: 0.9; MLL AF4-AF9 inh: 1.4; FGF22 binding: inactive

Results for CC[C@]12c3[nH]c4cc(CCC(=O)N(C)C)ccc4c3CCN1C(=O)[C@@H](CC(=O)NCc1ccco1)C[C@@H]2C(=O)N1CCN(C(=O)C2CC2)CC1 ?
E coli growth: 0.7; UCH37 DUB inh: 0.8; HNF4A DNA FP: 4.2; MLL AF4-AF9 inh: 2.8; FGF22 binding: inactive; Vif A3G: -1%

Results for O=C(NCCCn1cccn1)C1CCC(=O)N(Cc2cccc(C(F)(F)F)c2)C1 (stereo not given) ?
HNF4A DNA FP: -1.2; MLL AF4-AF9 inh: -1.0; FGF22 binding: inactive; RanGTP-Imp inh: inconclusive

Results for CS(=O)(=O)Nc1ccc(-c2n[nH]c(=S)n2-c2ccccc2)cc1 ?
E coli growth: 0.68; UCH37 DUB inh: -4.3; HNF4A DNA FP: -0.2; RanGTP-Imp inh: 4.3; Vif A3G: 4%

Results for CC(=O)c1c(C)[nH]c(C(=O)N2CCN(c3ncccn3)CC2)c1C ?
E coli growth: 0.77; UCH37 DUB inh: 4.0; HNF4A DNA FP: 2.3; MLL AF4-AF9 inh: 2.2; FGF22 binding: inactive; RanGTP-Imp inh: 4.2; Vif A3G: -2%

What do the screens show for `O=C(NCc1ccccn1)c1ccc(-c2ccccc2)cc1`?
E coli growth: 0.66; UCH37 DUB inh: 4.8; HNF4A DNA FP: 2.3; MLL AF4-AF9 inh: -1.2; RanGTP-Imp inh: 2.8; Vif A3G: -1%

What do the screens show for `Nc1nc(-c2ccc(S(=O)(=O)N3CCCCC3)cc2)cs1`?
E coli growth: 0.68; UCH37 DUB inh: -25; HNF4A DNA FP: 2.2; MLL AF4-AF9 inh: 3.8; FGF22 binding: inactive

Results for C/C(=N\NC(=O)c1ccc(OC2CCCC2)cc1)c1ccc(C)s1 ?
HNF4A DNA FP: -2.6; RanGTP-Imp inh: -1.9; Vif A3G: 1%

How did CC1CC(Nc2ccccc2)c2ccccc2N1C(=O)c1ccco1 (stereo not given) do in these assays?
E coli growth: 0.64; UCH37 DUB inh: 5.8; HNF4A DNA FP: -1.4; MLL AF4-AF9 inh: 6.5; FGF22 binding: inactive; RanGTP-Imp inh: -1.6; Vif A3G: 8%

What do the screens show for `O=C(NCc1ccncc1)[C@@H]1CCCN1C(=O)[C@@H]1CCCN1C(=O)c1c(F)cccc1F`?
HNF4A DNA FP: 7.0; MLL AF4-AF9 inh: 1.8; FGF22 binding: inactive

Results for CC(C)c1ccccc1NC(=S)NCCCn1ccnc1 ?
E coli growth: 0.71; UCH37 DUB inh: -1.6; HNF4A DNA FP: 3.0; MLL AF4-AF9 inh: -1.7; FGF22 binding: inactive; RanGTP-Imp inh: -1.9; Vif A3G: -7%

How did N=C1C(c2nc(-c3ccc(Cl)cc3)cs2)=C(O)CN1NC(=O)c1ccc(O)cc1 do in these assays?
E coli growth: 0.67; UCH37 DUB inh: 5.3; HNF4A DNA FP: 4.0; MLL AF4-AF9 inh: -4.9; FGF22 binding: inactive; RanGTP-Imp inh: 1.4; Vif A3G: -3%

Entries shown so far with two or more sulfur atoms, in the order listed:
How did COc1cc2c(cc1OC)CN(C(=O)CSC1=NCCS1)CC2 do in these assays?
HNF4A DNA FP: 3.9; MLL AF4-AF9 inh: -0.6; FGF22 binding: inactive; Vif A3G: 4%

How did N#Cc1ccccc1-n1c(N)c(C(=O)N2CCCC2)sc1=S do in these assays?
E coli growth: 0.64; UCH37 DUB inh: 9.3; HNF4A DNA FP: -5.1; RanGTP-Imp inh: -1.3; Vif A3G: inconclusive

Results for CS(=O)(=O)Nc1ccc(-c2n[nH]c(=S)n2-c2ccccc2)cc1 ?
E coli growth: 0.68; UCH37 DUB inh: -4.3; HNF4A DNA FP: -0.2; RanGTP-Imp inh: 4.3; Vif A3G: 4%

What do the screens show for `Nc1nc(-c2ccc(S(=O)(=O)N3CCCCC3)cc2)cs1`?
E coli growth: 0.68; UCH37 DUB inh: -25; HNF4A DNA FP: 2.2; MLL AF4-AF9 inh: 3.8; FGF22 binding: inactive

Source: PubChem BioAssay (several laboratories)

Some of the compounds tested (hit frequency here may not be typical).
